HNF4A DNA FP: change in binding of human HNF4 alpha to DNA; HNF4a-FITC DNA binding, fluorescence polarization, 1 h; activity change, % at 10 µM; actives 0.3% (n = 360,000); AID 1224865; in the data active means activity change above about 30%, passing the limit was not always enough;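 further: controls were the assay level and a saturating level of protein; the project sought stronger binding though the title names inhibitors; some compounds called inactive have numbers as strong as hits; positive values seem to mean higher polarization but the record does not say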
Target sequence (P41235 whole entry, looked up): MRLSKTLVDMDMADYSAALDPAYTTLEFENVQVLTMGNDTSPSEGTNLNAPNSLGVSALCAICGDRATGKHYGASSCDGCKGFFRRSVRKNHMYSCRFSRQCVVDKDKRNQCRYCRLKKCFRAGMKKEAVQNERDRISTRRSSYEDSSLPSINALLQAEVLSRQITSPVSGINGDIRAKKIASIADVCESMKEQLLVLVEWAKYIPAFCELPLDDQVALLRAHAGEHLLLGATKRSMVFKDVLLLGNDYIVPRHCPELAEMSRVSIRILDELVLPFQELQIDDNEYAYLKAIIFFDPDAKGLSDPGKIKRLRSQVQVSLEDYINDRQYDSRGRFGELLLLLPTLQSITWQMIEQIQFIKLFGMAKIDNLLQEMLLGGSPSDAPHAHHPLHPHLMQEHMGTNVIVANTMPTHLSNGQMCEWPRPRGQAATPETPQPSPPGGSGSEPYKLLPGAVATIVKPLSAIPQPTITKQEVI
Vif A3G: HIV-1 Vif–A3G interaction blockers – biochemical, TR-FRET, GST-Vif 1-94, biotin-A3G peptide, dose response retest, primary screen (AID 1117319); TR-FRET GST-Vif / biotin-A3G peptide binding; higher % means a stronger effect; test concentration not given here; strong numbers were not always called active; inhibition, %; hits with a dose series show IC50 in µM; actives 0.57% (n = 260,000);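 active means above the screen mean plus three standard deviations and confirmed in dose response; inconclusive means results disagree or hit not tested in dose response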;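 further: Vif residues 1-94 fused to GST binding biotinylated APOBEC3G peptide 110-148; 0% = full assay without inhibitor and 100% = GST in place of GST-Vif; retest series ran down from 100 µM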
Ecoli growth: blocks Escherichia coli growth; OD600, 23 h; active compounds read low; OD600 absorbance (concentration not given with the values); actives 0.21% (n = 330,000); AID 1053175;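 active means OD600 absorbance below the run mean of sample wells minus 3.6 SD, in any replicate, cut at about 0.56 in these data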;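 further: stock transfer was 300 nL into about 60 µL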
RanGTP-Impb inh: inhibitors of RanGTP-importin-beta interaction, primary screen, biochemical, FRET, CFP-Ran, YFP-importin-beta, homogeneous. cell-free CFP-Ran/YFP-importin-beta FRET ratio. inhibition, % (test concentration not listed). AID 2216. actives 1.1% (n = 300,000);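 active means most replicates above 15%; inconclusive means exactly half above 15%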;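 further: 0% = DMSO wells and 100% = Ran loaded with GDP instead of GTP; wells of about 40 µL received 100 nL stock; the first replicate is given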
AF4-AF9 inh: blocks AF4 peptide binding to human AF9 | P42568 | AlphaScreen, biotin-AF4 peptide binding to FLAG-AF9 | inhibition, % at 10 µM | actives 0.47% (n = 350,000) | AID 651704;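 active means every replicate reaching a set inhibition limit, whatever the replicate mean, cut at about 25% in these data; inconclusive means mean inhibition reaches that limit but some replicates miss it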;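 further: 0% = plate neutral control median and 100% = total signal loss; the record names both 10 and 1 µM as test concentration; the first replicate is given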
FGF22 binding: shifts melting point of recombinant human FGF22; Q9HCT0; recombinant FGF22 thermal shift, SYPRO orange fluorescence; percent of sucrose octasulfate shift, DMSO zero; calls only at 9.99 µM; actives 1.5% (n = 340,000);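 active means melting point raised past a set limit in the mean and every replicate; inconclusive means no clear call; three in four hits are not shown here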
Target sequence (Q9HCT0 whole entry, looked up): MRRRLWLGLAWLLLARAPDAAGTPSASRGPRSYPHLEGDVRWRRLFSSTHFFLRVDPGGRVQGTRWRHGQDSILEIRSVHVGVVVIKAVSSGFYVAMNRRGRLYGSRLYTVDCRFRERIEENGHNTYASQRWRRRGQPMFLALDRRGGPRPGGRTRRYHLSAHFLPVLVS
UCH37 DUB inh: blocks the human deubiquitinase UCH37; Q9Y5K5; purified proteasome/UCH37, Ub-AMC cleavage fluorescence; inhibition, % (test concentration not listed); actives 0.33% (n = 330,000); AID 588478;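 active means mean of two replicates above 20%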;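 further: 0% = compound-free wells with enzyme and 100% = wells lacking proteasome; stock transfer was 100 nL into about 20 µL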
Target sequence (Q9Y5K5 whole entry, looked up): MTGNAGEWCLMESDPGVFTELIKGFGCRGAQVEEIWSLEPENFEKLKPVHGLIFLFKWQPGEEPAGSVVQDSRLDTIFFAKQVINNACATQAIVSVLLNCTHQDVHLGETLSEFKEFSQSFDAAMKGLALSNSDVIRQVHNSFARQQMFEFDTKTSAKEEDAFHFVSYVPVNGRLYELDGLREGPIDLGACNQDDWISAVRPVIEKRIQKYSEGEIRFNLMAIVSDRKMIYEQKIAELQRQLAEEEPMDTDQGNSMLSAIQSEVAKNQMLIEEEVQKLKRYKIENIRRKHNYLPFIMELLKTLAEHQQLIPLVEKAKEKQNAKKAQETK
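Assay system: Proteasome-bound UCH37. Buffer or medium: pH 7.4 Tris-HCl (50 mM) with ovalbumin, ATP-MgCl2, DTT. Incubation: 30 min preincubation with enzyme, 25 min cleavage at room temperature. Measured by: fluorescence, ex 355 nm, em 460 nm. Read-out basis: percent inhibition. Control set: wells without proteasome as full block, compound-free enzyme plus substrate as uninhibited.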
Active calls of the source: *; i = inactive; ? = inconclusive; . = no result given.

HNF4A DNA FP,Vif A3G,Ecoli growth,RanGTP-Impb inh,AF4-AF9 inh,FGF22 binding,UCH37 DUB inh,compound
-1.7,?,0.71,1.3,-4.3,i,4.5,Cc1cccc(OCc2nc(C#N)c(NCCN(C)C)o2)c1
0.2,?,0.66,-1.1,.,.,-0.6,COC(=O)CSc1nnc(-c2ccc(S(=O)(=O)N3CCCCC3)cc2)o1
-4.4,.,0.74,.,0.2,i,5.3,CCN(CC)S(=O)(=O)c1ccc(N2CCOCC2)c(NC(=O)c2cc(Cl)c3c(c2)OCO3)c1
2.1,3%,.,-2.3,0.1,i,.,O=C(N/N=C/c1ccncc1)c1nn(Cc2ccccc2)c(=O)c2ccccc12
-1.0,-12%,0.65,-0.1,0.3,i,0.2,Cc1ccc(S(=O)(=O)N2CCN(C(=O)c3ccco3)CC2)c(C)c1
0.0,0%,0.7,2.1,.,.,0.8,O=C1C2C3C=CC([C@@H]2C(=O)N1Cc1cccnc1)C31CC1 (stereo partly drawn)
5.6,-27%,0.68,2.1,2.3,i,-158,COC(=O)CSc1nc(-c2cccs2)ccc1C#N
0.8,.,0.68,2.2,-6.7,i,2.7,O=C(Nc1ccc2c(c1)OCO2)c1cc(-c2ccc(O)cc2)on1
-0.9,7%,0.71,2.7,1.9,i,11,Cc1ccc(C2C(C(=O)c3sc(C)nc3C)=C(O)C(=O)N2CCN(C)C)o1 (stereo not drawn)
-2.5,-3%,0.74,-1.5,.,.,-3.7,Nc1cc(C2CCCC2)nn1-c1ccccc1
4.1,.,0.69,-0.7,-0.3,i,4.8,CCC1CCCCN1C(=O)c1ccc(OC2CCN(C(=O)CCOC)CC2)cc1 (stereo not drawn)
2.6,.,.,-1.2,-3.3,i,.,Cc1cccc(NC(=O)NCc2ccc3c(c2)OCO3)c1
-12,.,0.7,-1.0,-0.2,i,1.3,COc1cccc(-c2nc(CS(=O)CC(=O)NC(C)CCc3ccccc3)c(C)o2)c1 (stereo not drawn)
0.0,-11%,0.71,5.3,1.5,i,3.8,Cc1cccc(NC(=O)[C@@H](NC(=O)[C@@H]2Cc3ccccc3CN2)C(C)C)c1
0.1,20%,0.7,3.4,.,.,0.3,CC1CN(S(=O)(=O)c2cccc(C(=O)NCCCn3ccnc3)c2)CC(C)O1 (stereo not drawn)
-2.2,4%,0.72,3.6,.,.,3.8,Cc1ccc(-c2nc(N)n(S(C)(=O)=O)n2)cc1
-1.3,-9%,0.67,97*,.,.,-4.6,N#CC1=C(N)Oc2cc(N)ccc2C1C1CCCCC1 (stereo not drawn)
-0.7,-11%,0.78,-3.0,-5.3,i,3.6,CCOC(=O)N1CCN(C(=O)CSc2nc3c(cnn3-c3ccc(Cl)cc3)c(=O)[nH]2)CC1
-1.2,0%,0.72,-0.5,.,.,2.0,COc1ccc(N2Cc3cccc(C(=O)N4CCOCC4)c3C2=O)cc1
2.0,-11%,0.72,4.1,-7.0,i,3.4,CC1(c2ccc(OC(F)F)cc2)NC(=O)N(CC(=O)Nc2ccc3[nH]c(=O)[nH]c3c2)C1=O (stereo not drawn)
-0.8,25%,0.68,8.5,-0.4,i,4.4,CCN(CC)CCNC(=O)C1c2cc(OC)c(OC)cc2C(=O)N(C)C1c1cccs1 (stereo not drawn)
-0.1,-3%,0.69,0.1,.,.,3.6,CC(=O)Nc1ccc(NC(=O)c2cc(C)nn2-c2ccccc2)cc1
1.0,.,0.7,-2.9,3.8,i,0.3,CSCC[C@H](NC(=O)Nc1ccc(Oc2ccccc2)cc1)C(=O)O
-2.5,20%,0.69,0.3,.,.,2.2,COCCNC(=O)c1ccccc1NC(=O)c1ccc(Cl)c(S(=O)(=O)Nc2ccc(C)cc2C)c1
2.7,6%,0.74,?,.,.,-1.1,CC(=O)NS(=O)(=O)c1ccc(NC(=O)CCC2CCCC2)cc1

Reprinted from the part before: 5 compounds, followed by the next part.
HNF4A DNA FP,Vif A3G,Ecoli growth,RanGTP-Impb inh,AF4-AF9 inh,FGF22 binding,UCH37 DUB inh,compound
-0.8,25%,0.68,8.5,-0.4,i,4.4,CCN(CC)CCNC(=O)C1c2cc(OC)c(OC)cc2C(=O)N(C)C1c1cccs1 (stereo not drawn)
-0.1,-3%,0.69,0.1,.,.,3.6,CC(=O)Nc1ccc(NC(=O)c2cc(C)nn2-c2ccccc2)cc1
1.0,.,0.7,-2.9,3.8,i,0.3,CSCC[C@H](NC(=O)Nc1ccc(Oc2ccccc2)cc1)C(=O)O
-2.5,20%,0.69,0.3,.,.,2.2,COCCNC(=O)c1ccccc1NC(=O)c1ccc(Cl)c(S(=O)(=O)Nc2ccc(C)cc2C)c1
2.7,6%,0.74,?,.,.,-1.1,CC(=O)NS(=O)(=O)c1ccc(NC(=O)CCC2CCCC2)cc1
5.0,7%,.,1.9,13,i,.,Fc1ccccc1/C=N/Nc1ncnc2ccccc12
-1.0,11%,0.66,1.9,.,.,6.1,CCCCn1c(=N)n(CC(O)COc2ccc(C)cc2)c2ccccc21 (stereo not drawn)
-2.1,.,0.69,-3.7,.,.,17,CCOC(=O)c1cc2[nH]c3ccccc3c2[n+](-c2ccc([N+](=O)[O-])cc2)c1C
0.6,1%,0.74,2.6,.,.,-0.3,COc1ccc(CN2CCn3ncc(C(=O)Nc4ccccc4)c3C2=O)cc1
-3.0,-8%,0.67,.,-1.2,i,0.6,CCN(CC(=O)Nc1cc(Cl)ccc1C)C(=O)CCc1nc2ccccc2c(=O)[nH]1
3.6,.,0.72,-3.3,21,i,2.7,O=C1C2CCCCC2C(=O)N1c1ccc(NC2CCCCC2)c([N+](=O)[O-])c1 (stereo not drawn)
0.3,.,0.68,?,.,.,3.1,O=C(Cn1ccc2ccccc2c1=O)NCCC(=O)Nc1cccc(Cl)c1
.,-4%,.,-0.1,.,.,-3.0,CC(C)[C@H](NC(=O)[C@H](CC(=O)O)NC(=O)[C@H](CCCCN)NC(=O)[C@@H](N)CCCN=C(N)N)C(=O)N[C@@H](Cc1ccc(O)cc1)C(=O)O
-5.2,.,0.7,.,-4.1,i,2.2,Cc1c(C(=O)O)sc(S(=O)(=O)N2CCN(C(=O)CC(C)c3ccccc3)CC2)c1C(=O)O (stereo not drawn)
3.2,0%,.,.,-9.5,i,.,CCOc1ccc(NS(=O)(=O)c2cccs2)cc1S(=O)(=O)N1CCCC1
-0.5,-6%,0.79,3.2,.,.,2.1,Cn1c(=O)c2c(nc(-n3ccnc3)n2Cc2ccc([N+](=O)[O-])cc2)n(C)c1=O
2.4,3%,0.65,-2.0,.,.,0.9,COc1ccc(-c2noc(CSc3ccc(C)cc3)n2)cc1
-2.0,-4%,0.75,7.0,.,.,1.8,NC(=O)CCS(=O)(=O)CCN1CCCCC1
-2.8,.,.,-4.6,0.2,i,.,CCCOc1ccc(-c2c(C(=O)N/N=C/c3ccsc3)nnn2-c2nonc2N)cc1
0.0,13%,0.67,?,.,.,2.1,CCCCNC(=S)NNC(=O)c1csc2c1CCC(C)C2 (stereo not drawn)
-19,11%,0.69,4.8,.,.,1.8,O=C(O)C1CCCN1S(=O)(=O)c1ccc2ccccc2c1 (stereo not drawn)
-1.8,-1%,0.69,.,-2.8,i,4.3,CN(Cc1ccccc1)C(=O)c1cccc(NC(=O)Cc2ccc(NC(=O)C3CCCN(C(=O)C4CC4)C3)cc2)c1 (stereo not drawn)
-2.9,?,0.67,0.2,3.6,i,-3.1,Cc1cccc(C)c1OCC(=O)Nc1ccc(S(=O)(=O)Nc2ccccn2)cc1
6.2,0%,.,-3.7,50*,i,1.7,Cc1ccc(F)c([C@H]2C3C=CCC(c4ccccc4)C3C(=O)N2Cc2ccccc2)c1 (stereo partly drawn)
2.4,.,0.59,3.4,-1.4,i,0.7,Cc1cccc(C)c1OCCN1C(=O)NC(C)(c2ccccc2)C1=O (stereo not drawn)
1.3,-12%,.,-0.6,.,.,.,c1ccc(OCCOCCSc2ncccn2)cc1
-0.2,5%,0.78,-1.1,-0.8,i,2.4,Cc1cc(Nc2cc(C)on2)n2ncnc2n1
4.3,2%,0.67,0.5,-4.7,i,1.6,O=c1c(F)cn(C2CCCO2)c(=O)n1Cc1ccccc1Cl (stereo not drawn)
-1.0,-3%,0.7,4.7,1.8,i,1.9,CSCCCN1CCC(n2nccc2NC(=O)CCCc2ccccc2)CC1
-2.9,-4%,.,-2.3,1.0,i,1.6,O=C(/C=C/c1ccc(S(=O)(=O)N2CCOCC2)cc1)NC(=S)NCCCn1ccnc1
-1.6,.,0.68,-5.5,-3.4,i,1.8,Cn1c(=S)[nH]c2c(c1=O)C(C)(C)Cc1ccccc1-2
-0.7,14%,0.71,2.2,.,.,1.2,c1ccc2c(CSc3nnc(-c4ccncc4)o3)cccc2c1
0.5,-6%,0.73,-0.6,.,.,-1.5,CCCCCOC(=O)C(C)c1c(C)[nH]c(=S)[nH]c1=O (stereo not drawn)
1.2,-9%,0.71,1.3,3.5,i,5.3,O=C(NCCN1C(=O)S/C(=C\c2ccc(F)cc2)C1=O)c1cccc(S(=O)(=O)N2CCOCC2)c1
0.4,.,0.69,-0.5,-0.8,i,4.4,COc1ccc(OC)c(NC(=O)CSc2ccc3nnc(-c4ccccn4)n3n2)c1
2.5,.,.,-2.1,-4.5,i,.,Cc1cc(NC(=O)C(C)SCC(=O)Nc2nnc(CC(C)C)s2)no1 (stereo not drawn)
-9.5,9%,0.71,0.6,12,i,4.2,CN(C)CCCNC(=O)/C(=C\c1ccc(-c2cccc([N+](=O)[O-])c2)o1)NC(=O)c1ccccc1
-0.9,-1%,.,2.4,-1.5,.,.,O=C(NCc1ccncc1)C(=O)N/N=C/c1ccccc1OCc1ccccc1
-1.7,-7%,0.69,10,.,.,-0.9,Nc1nonc1-c1noc(N2CCCCC2)n1
1.0,-8%,0.75,-0.5,.,.,1.5,Cc1ccc(-c2nnc(SCC(=O)Nc3ccc4c(c3)oc3ccccc34)n2C)c(Cl)c1
1.1,11%,0.66,3.8,15,i,6.1,CCn1c(C)cc(/C=C2/SC(=O)N(C(C)C(=O)OC)C2=O)c1C (stereo not drawn)
0.6,12%,0.66,10,3.8,i,-483,Cc1ccc(Nc2c(-c3ccco3)nc3ccccn23)cc1
0.1,-10%,0.66,5.0,.,.,5.8,CCOC(=O)c1c(N)sn(-c2ccccc2C)c1=S
0.5,.,0.74,8.2,.,.,3.9,Cc1cccc(NC(=O)CCC(=O)OCc2ccc(Br)cc2)c1
-1.2,2%,0.71,5.9,-4.3,i,3.8,CCN(Cc1nc(-c2ccc(C)cc2)no1)C(=O)c1ccco1
1.6,7%,0.67,-2.6,-2.7,i,4.3,CC1C=CCC2C(=O)N(c3cccc(C(=O)NCCc4ccccc4)c3)C(=O)C12 (stereo not drawn)
-0.7,.,0.7,6.8,-3.1,i,-16,CC(Oc1ccc2ccc(=O)oc2c1)C(=O)NC1CCN(Cc2ccccc2)CC1 (stereo not drawn)
1.3,-9%,0.68,.,-12,i,5.1,CC1CC(=O)Nc2ccccc2N1C(=O)CSc1nnnn1C(C)C (stereo not drawn)
-2.5,-3%,0.65,-4.7,.,.,-3.0,Cc1cc(Nc2cnc3ccccc3n2)n(-c2ccccc2)n1
3.2,.,.,.,-0.4,i,.,C[C@H](c1ccccc1)N1C[C@@H](COCc2ccccc2)Oc2cc(N3CC[C@@H](O)C3)ccc2S1(=O)=O
0.9,.,.,.,-3.6,i,.,COCCNC(=O)C1CCCN(Cc2ccc(C#N)cc2)CC1 (stereo not drawn)
-5.3,10%,.,-1.2,2.8,.,.,CSc1ccc(NC(=O)Nc2ccc(C(=O)NCC(=O)O)cc2)cc1

Assay outcomes from PubChem BioAssay.

Only part of the results is shown; rates above refer to the full screens.
